Ecoli rRNA inh: inhibitors of bacterial rRNA selective over humanized ribosomes | E. coli WT GFP vs humanized-ribosome RFP mutants, fluorescence, 24 h; active compounds read low; DMSO median 0, no signal -100 | 350,000 tested, 1.6% active | GFP signal change (wild-type ribosome), % (concentration not given with the values);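 active = significant combined selectivity score with lowered wild-type GFP, culture density cut under 30%, mutant RFP and density less affected; inactive = any of these conditions unmet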; also: one replicate is shown; some compounds called inactive have numbers as strong as hits
HNF4A DNA FP: change in binding of human HNF4 alpha to DNA; P41235; HNF4a-FITC DNA binding, fluorescence polarization, 1 h; activity change, % at 10 µM; 360,000 tested, 0.3% active; AID 1224865; in the data active = activity change above about 30%, passing the limit was not always enough;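 also: controls were the assay level and a saturating level of protein; the project sought stronger binding though the title names inhibitors; some compounds called inactive have numbers as strong as hits; positive values seem to mean higher polarization but the record does not say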
Target sequence (P41235 whole entry, looked up): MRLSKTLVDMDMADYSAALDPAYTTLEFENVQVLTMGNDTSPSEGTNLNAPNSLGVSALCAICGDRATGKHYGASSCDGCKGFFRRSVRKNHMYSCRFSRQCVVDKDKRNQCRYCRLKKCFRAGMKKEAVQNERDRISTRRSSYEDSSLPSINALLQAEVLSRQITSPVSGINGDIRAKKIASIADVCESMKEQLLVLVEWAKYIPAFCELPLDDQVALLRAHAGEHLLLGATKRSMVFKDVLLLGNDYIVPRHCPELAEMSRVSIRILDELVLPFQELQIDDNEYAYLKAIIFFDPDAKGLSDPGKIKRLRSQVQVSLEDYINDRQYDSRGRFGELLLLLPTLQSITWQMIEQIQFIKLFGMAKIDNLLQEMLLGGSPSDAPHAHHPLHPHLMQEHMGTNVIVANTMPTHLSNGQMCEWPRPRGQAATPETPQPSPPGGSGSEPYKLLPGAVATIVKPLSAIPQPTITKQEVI
FGF22 binding: binders of recombinant human FGF22 by thermal shift; Q9HCT0; 340,000 tested, 1.5% active; SYPRO orange fluorescence; percent of sucrose octasulfate shift, DMSO zero; calls only at 9.99 µM;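 active = melting point raised past a set limit in the mean and every replicate; three in four hits are not shown here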
Target sequence (Q9HCT0 whole entry, looked up): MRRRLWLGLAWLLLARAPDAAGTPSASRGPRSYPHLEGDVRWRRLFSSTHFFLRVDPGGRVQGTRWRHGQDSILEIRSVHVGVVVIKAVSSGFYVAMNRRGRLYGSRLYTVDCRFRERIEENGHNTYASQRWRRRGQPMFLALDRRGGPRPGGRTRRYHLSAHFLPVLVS
Ecoli growth: blocks Escherichia coli growth. OD600, 23 h; active compounds read low. OD600 absorbance (no concentration beside the values). 330,000 tested, 0.21% active. AID 1053175;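 active = OD600 absorbance below the run mean of sample wells minus 3.6 SD, in any replicate, cut at about 0.56 in these data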;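 also: stock transfer was 300 nL into about 60 µL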
Vif A3G: HIV-1 Vif–A3G interaction blockers – biochemical, TR-FRET, GST-Vif 1-94, biotin-A3G peptide, dose response retest, primary screen (AID 1117319); TR-FRET GST-Vif / biotin-A3G peptide binding; higher % means a stronger effect; test concentration not given here; strong numbers were not always called active; 260,000 tested, 0.57% active; inhibition, %, or IC50 in µM where a hit was titrated;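 active = above the screen mean plus three standard deviations and confirmed in dose response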;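 also: Vif residues 1-94 fused to GST binding biotinylated APOBEC3G peptide 110-148; 0% = full assay without inhibitor and 100% = GST in place of GST-Vif; retest series ran down from 100 µM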
Ecoli rRNA inh OD600: further read-out of Ecoli rRNA inh, marked with its call; OD600 change, %; measured here: OD600 growth;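 optical density of the mix in the first replicate; 0 = DMSO median and -100 = no signal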
Ecoli rRNA inh RFP: second read-out of Ecoli rRNA inh, no call of its own (marks repeat the call); RFP signal change, %; measured here: RFP humanized mutant strains;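 first replicate; 0 = DMSO median and -100 = no signal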
An asterisk follows results filed as active; i = inactive; / = no result given.

SMILES	Ecoli rRNA inh	HNF4A DNA FP	FGF22 binding	Ecoli growth	Vif A3G	others
NC(=S)NN=Cc1coc2ccccc2c1=O	/	/	/	0.54	/
CN(C)c1ccc(C=Cc2cc[n+](C)c3ccccc23)cc1	/	/	/	0.39*	/
COC(=O)C1=C(c2cccc(OCc3ccccc3)c2)CC2CCC1N2C(=O)NCCCOC(C)C (stereo not drawn)	/	/	/	0.61	/
O=C(CSC1c2ccccc2-c2ccccc21)NN=Cc1ccc(C(=O)O)cc1	/	/	/	0.68	/
COC(=O)C1=C(c2ccccc2)CC2CCC1N2C(=O)NCc1cccc2ccccc12 (stereo not drawn)	/	/	/	0.67	/
COC(=O)C1=C(c2cccc(OCc3ccccc3)c2)CC2CCC1N2C(=O)NCc1ccc(C(C)(C)C)cc1 (stereo not drawn)	/	/	/	0.73	/
COc1ccc(C(=O)NN=CC23CC[C@@H](O)CC2(O)CC[C@@H]2[C@@H]3CCC3(C)C(C4=CC(=O)OC4)CCC23O)cc1 (stereo partly drawn)	/	/	/	0.68	/
COC(=O)C1=C(c2ccccc2)CC2CCC1N2C(=O)N1CCCC1 (stereo not drawn)	/	/	/	0.67	/
C[C@]12CCC(O)CC1CCC1C2CC(O)[C@]2(C)C(C3=CC(=O)OC3)CC[C@]12O (stereo partly drawn)	/	/	/	0.67	/
COC(=O)C1=C(c2ccc(OC)c(OC)c2)CC2CCC1N2C(=O)N1CCC(C)CC1 (stereo not drawn)	/	/	/	0.73	/
CC(O)C1CCC2C3CCC4=CC(=O)CC[C@]4(C)C3CC[C@]12C (stereo partly drawn)	/	/	/	0.66	/
CCOC(=O)[C@]12Cc3cc(N(C)C)ccc3C1N(Cc1ccccc1)C(=O)c1ccccc12 (stereo partly drawn)	/	/	/	0.7	/
COC(=O)C1=C(c2ccc(OC(F)(F)F)cc2)CC2CCC1N2C(=O)NC1CCCCC1 (stereo not drawn)	/	/	/	0.66	/
COC(=O)C1=C(c2ccc3ccccc3c2)CC2CCC1N2C (stereo not drawn)	/	/	/	0.67	/
COC(=O)C1=C(c2ccc(F)cc2OCc2ccccc2)CC2CCC1N2C(=O)NCc1ccc(C(C)(C)C)cc1 (stereo not drawn)	/	/	/	0.66	/
CN1C2CCC1C(C(=O)N1CCOCC1)=C(O)C2 (stereo not drawn)	/	/	/	0.72	/
C=C1C(=O)OC2C1C(OC(=O)CC(=O)OC1CC(C)C3C=CC(=O)[C@@]3(C)C3OC(=O)C(=C)C13)CC(C)C1C=CC(=O)[C@]12C (stereo partly drawn)	/	/	/	0.71	/
COC(=O)c1cc(C(O)(C(=O)OC)C(F)(F)F)c(N=CN(C)C)s1 (stereo not drawn)	/	/	/	0.62	/
N#CC(OC1OC(COC2OC(CO)C(O)C(O)C2O)C(O)C(O)C1O)c1ccccc1 (stereo not drawn)	/	/	/	0.69	/
CNC(=O)ON=C(C)Cc1nnn(-c2cc(C)on2)n1	/	/	/	0.64	/
C=C1C(=O)OC2CC(C)C3C=CC(=O)[C@@]3(C)C(OC(=O)CC(=O)OC3C4C(=C)C(=O)OC4CC(C)C4C=CC(=O)[C@]43C)C12 (stereo partly drawn)	/	/	/	0.66	/
O=C1NC(Cc2ccccc2)C(=O)N2C1CC1c3ccccc3N(OOSc3ccccc3)C12 (stereo not drawn)	/	/	/	0.68	/
COC(=O)C1=C(c2ccc(C(C)=O)cc2)CC2CCC1N2C(=O)NC1CCCCC1 (stereo not drawn)	/	/	/	0.71	/
COC(=O)C1=C(c2ccc(C(C)=O)cc2)CC2CCC1N2C(=O)N1CCC(O)(c2ccc(Cl)cc2)CC1 (stereo not drawn)	/	/	/	0.68	/
COC(=O)C1=C(c2ccc(OC(F)(F)F)cc2)CC2CCC1N2C(=O)NC(C)C (stereo not drawn)	/	/	/	0.68	/

Taken from above, two compounds:
SMILES	Ecoli rRNA inh	HNF4A DNA FP	FGF22 binding	Ecoli growth	Vif A3G	others
COC(=O)C1=C(c2ccc(F)cc2OCc2ccccc2)CC2CCC1N2C(=O)NCc1ccc(C(C)(C)C)cc1 (stereo not drawn)	/	/	/	0.66	/
CN1C2CCC1C(C(=O)N1CCOCC1)=C(O)C2 (stereo not drawn)	/	/	/	0.72	/

Next part
SMILES	Ecoli rRNA inh	HNF4A DNA FP	FGF22 binding	Ecoli growth	Vif A3G	others
COC(=O)C1=C(c2cccc(OCc3ccccc3)c2)CC2CCC1N2C(=O)NCCN1CCOCC1 (stereo not drawn)	/	/	/	0.7	/
O=c1ccc2cc(OC3OC(CO)C(O)C(O)C3O)c(O)cc2o1 (stereo not drawn)	/	/	/	0.71	/
COC(=O)C1=C(c2ccc(OC(F)(F)F)cc2)CC2CCC1N2C(=O)N1CCCC1 (stereo not drawn)	/	/	/	0.67	/
COC(=O)C1=C(c2cc3ccccc3s2)CC2CCC1N2C(=O)N1CCC(C)CC1 (stereo not drawn)	/	/	/	0.7	/
CC1=CC(=O)OC2CC3OC4CC(C)C5OC6CC7O[C@]8(C)CC=CC9OC%10CC%11OC(CC(C)C%12OCCO%12)CC(O)[C@]%11(C)OC%10CC9OC8C[C@]7(C)O[C@]6(C)CCC5OC4C[C@]3(C)OC12 (stereo partly drawn)	/	/	/	0.71	/
CCOC(=O)c1cc(C)sc1N=CC1C(=O)NC(=S)NC1=O	/	/	/	0.7	/
COC(=O)C1=C(c2ccccc2)CC2CCC1N2C(=O)NCCO (stereo not drawn)	/	/	/	0.68	/
COC(=O)C1=C(c2cccc(OC)c2OC)CC2CCC1N2C(=O)NCc1ccc(F)cc1 (stereo not drawn)	/	/	/	0.68	/
COC(=O)C1=C(c2cccc(C#N)c2)CC2CCC1N2C(=O)NCCCOC(C)C (stereo not drawn)	/	/	/	0.71	/
COC(=O)C1=C(c2ccccc2)CC2CCC1N2C(=O)NC1CC1 (stereo not drawn)	/	/	/	0.7	/
COC(=O)C1=C(c2cc3ccccc3s2)CC2CCC1N2C(=O)NCc1ccco1 (stereo not drawn)	/	/	/	0.7	/
COC(=O)C1=C(c2ccccc2)CC2CCC1N2C(=O)NCc1ccccc1 (stereo not drawn)	/	/	/	0.66	/
COC(=O)C1=C(c2ccc(S(C)(=O)=O)cc2)CC2CCC1N2C(=O)NC1CCCCC1 (stereo not drawn)	/	/	/	0.68	/
COC(=O)C1=C(c2ccc(F)cc2OCc2ccccc2)CC2CCC1N2C(=O)NCc1ccccc1Cl (stereo not drawn)	/	/	/	0.76	/
C=C1C(=O)OC2CC(C)C3C=CC(=O)[C@@]3(C)C(O)C12 (stereo partly drawn)	/	/	/	0.63	/
O=C(Cc1ccccc1)N1CCN(CC=Cc2ccccc2)CC1	/	/	/	0.71	/
COC(=O)C1=C(c2cc3ccccc3o2)CC2CCC1N2C(=O)NC(C)C (stereo not drawn)	/	/	/	0.68	/
NC(=N[N+](=O)[O-])N1CCN(C(=O)c2ccccc2)CC1	/	/	/	0.66	/
CC(O)=C(C#N)C(=O)Nc1cc(Br)ccc1Br	/	/	/	0.67	/
COC(=O)C1=C(c2ccc(Cl)c(C(F)(F)F)c2)CC2CCC1N2C(=O)NCC1CC1 (stereo not drawn)	/	/	/	0.71	/
COC(=O)C1=C(c2ccc(F)cc2OCc2ccccc2)CC2CCC1N2C(=O)NCc1ccccc1 (stereo not drawn)	/	/	/	0.67	/
CC(C)(O)[C@H]1O[C@H]2CC[C@@]3(C)[C@@](O)(CC[C@H]4Cc5c([nH]c6ccccc56)[C@@]43C)C2=CC1=O	/	/	/	/	5%
CN1CC[C@]2(c3cccc(O)c3)Cc3nc4ccccc4cc3C[C@H]2C1	/	/	/	/	-9%
CCN(C(C)=O)c1cccc(-c2ccnc3c(C#N)cnn23)c1	/	/	/	/	-4%
CC1CCN(S(=O)(=O)c2ccc(NN=C(C#N)C#N)cc2)CC1	/	/	/	/	20%
SMILES	Ecoli rRNA inh	HNF4A DNA FP	FGF22 binding	Ecoli growth	Vif A3G	others
CCCCCCCCCOc1ccc2[nH]cc(CCN)c2c1	/	/	/	/	-9%
NC(=O)CS(=O)C(c1ccccc1)c1ccccc1 (stereo not drawn)	/	/	/	/	-2%
CC1=C(C)CN2CC(C#N)=C(N)C2C1 (stereo not drawn)	/	-6.6	/	/	/
CN(Cc1cccc(-c2ccncc2)c1)C(=O)Oc1ccc([N+](=O)[O-])cc1	/	2.4	/	/	/
Cc1ccc(-n2c(=O)[nH]c3ccccc3c2=O)cc1[N+](=O)[O-]	/	-1.0	/	/	/
CN1CCCCC1Cc1ccccc1 (stereo not drawn)	/	-2.0	/	/	/
COC(=O)C1=C(c2ccc(S(C)(=O)=O)cc2)C[C@@H]2CC[C@H]1N2C(=O)NCCO	/	1.8	/	/	/
COc1cc(CCN)c(OC)cc1C	13	/	i	/	/	Ecoli rRNA inh OD600=3;Ecoli rRNA inh RFP=2.6
Cc1ccccc1C(=O)NCCN1CCC2(CC1)C(=O)NCN2c1ccccc1	6	/	i	/	/	Ecoli rRNA inh OD600=12;Ecoli rRNA inh RFP=-2.2
O=C(Nc1ccccc1)N1Cc2cc(Br)ccc2-n2nncc2C1	-15	/	i	/	/	Ecoli rRNA inh OD600=-7;Ecoli rRNA inh RFP=0.0
O=C(O)C(Br)Br	3	/	i	/	/	Ecoli rRNA inh OD600=-2;Ecoli rRNA inh RFP=-2.8
Clc1ccc(Cl)c(Cl)c1	4	/	i	/	/	Ecoli rRNA inh OD600=5;Ecoli rRNA inh RFP=3.0
CCOC(=O)CNC(=O)N1Cc2cc(Br)ccc2-n2nncc2C1	11	/	i	/	/	Ecoli rRNA inh OD600=10;Ecoli rRNA inh RFP=0.1
CCC(C)NC1(c2ccccc2)CCCCC1 (stereo not drawn)	11	/	i	/	/	Ecoli rRNA inh OD600=7;Ecoli rRNA inh RFP=4.1

Grouped by structure, the entries above with sulfur (eleven)
SMILES	Ecoli rRNA inh	HNF4A DNA FP	FGF22 binding	Ecoli growth	Vif A3G	others
NC(=S)NN=Cc1coc2ccccc2c1=O	/	/	/	0.54	/
O=C(CSC1c2ccccc2-c2ccccc21)NN=Cc1ccc(C(=O)O)cc1	/	/	/	0.68	/
COC(=O)c1cc(C(O)(C(=O)OC)C(F)(F)F)c(N=CN(C)C)s1 (stereo not drawn)	/	/	/	0.62	/
O=C1NC(Cc2ccccc2)C(=O)N2C1CC1c3ccccc3N(OOSc3ccccc3)C12 (stereo not drawn)	/	/	/	0.68	/
COC(=O)C1=C(c2cc3ccccc3s2)CC2CCC1N2C(=O)N1CCC(C)CC1 (stereo not drawn)	/	/	/	0.7	/
CCOC(=O)c1cc(C)sc1N=CC1C(=O)NC(=S)NC1=O	/	/	/	0.7	/
COC(=O)C1=C(c2cc3ccccc3s2)CC2CCC1N2C(=O)NCc1ccco1 (stereo not drawn)	/	/	/	0.7	/
COC(=O)C1=C(c2ccc(S(C)(=O)=O)cc2)CC2CCC1N2C(=O)NC1CCCCC1 (stereo not drawn)	/	/	/	0.68	/
CC1CCN(S(=O)(=O)c2ccc(NN=C(C#N)C#N)cc2)CC1	/	/	/	/	20%
NC(=O)CS(=O)C(c1ccccc1)c1ccccc1 (stereo not drawn)	/	/	/	/	-2%
COC(=O)C1=C(c2ccc(S(C)(=O)=O)cc2)C[C@@H]2CC[C@H]1N2C(=O)NCCO	/	1.8	/	/	/

Some of the compounds tested. The share of hits here may be higher or lower than overall.
